# Sfp inh: qHTS Assay for Inhibitors of Bacillus subtilis Sfp phosphopantetheinyl transferase (PPTase); Potency, µM, for inactives: max response, negative = inhibition, usual class: inhibitors; Biochemical Sfp PPTase activity, qHTS; 3.5% of 310,000 active; 4'-phosphopantetheinyl transferase ffp (Bacillus subtilis), Q9F4F7; active means well fitted inhibition curve with a large enough effect; inconclusive means small, poorly fitted or top-dose-only effect, or another doubt; inactive means no such curve, though single readings can be large or run the other way;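 further: the enzyme is Sfp with the accession as filed and its product quenches rhodamine fluorescence; potency means the concentration at half of the fitted maximal effect; 0% = enzyme reaction without inhibitor and -100% = no enzyme wells; top concentration of the series not given in the record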
#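 With Hepes-Na pH 7.6 buffer containing 10 mM MgCl2, Sfp (15 nM) modified BHQ-2-YbbR (12.5 uM) using rhodamine-CoA (5 uM). Two reads 30 minutes apart at 525/598 nm yielded each well's rate.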
# Menin-MLL FL inh: qHTS Assay for Inhibitors Targeting the Menin-MLL Interaction in MLL Related Leukemias: Competition With Fluorescein Labeled MLL-derived Peptide; Fluorescence polarization, fluorescein-MLL peptide displacement from menin; FP activity change, % at 61.4 µM; 290,000 tested, under 10 active; AID 1766, 2009; inconclusive = falling polarisation curve, or a change in total fluorescence; inactive = total fluorescence flat and polarisation flat or rising; no compound was filed as active; the % refers to the polarisation; negative = inhibition;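 further: % of control where 0% means no effect; inhibitors lower the polarisation; unlabelled MLL peptide was the positive control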
# TRPML1 inh: qHTS for Inhibitors of the Human Mucolipin Transient Receptor Potential 1 (TRPML1); Mucolipin-1 (Homo sapiens), Q9GZU1; TRPML1-inducible cells, Ca2+ dye fluorescence, FDSS; hits give low values; inhibition of EC80 agonist-evoked calcium signal; activity change, negative = inhibition, % (concentration not given with the values); 0.02% of 390,000 active; AID 624415, 2012; in the data active means activity change below about -50%; inconclusive means about -30% to -50%; inactive means above about -30%;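 further: stimulus is agonist 54-4 at its EC80 concentration; on the % scale 0 is the no-effect control and ±100 the full control effect; compound concentration not given in the record; the text of the record puts the active cut at -80%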
# Target sequence (Q9GZU1 whole entry, looked up): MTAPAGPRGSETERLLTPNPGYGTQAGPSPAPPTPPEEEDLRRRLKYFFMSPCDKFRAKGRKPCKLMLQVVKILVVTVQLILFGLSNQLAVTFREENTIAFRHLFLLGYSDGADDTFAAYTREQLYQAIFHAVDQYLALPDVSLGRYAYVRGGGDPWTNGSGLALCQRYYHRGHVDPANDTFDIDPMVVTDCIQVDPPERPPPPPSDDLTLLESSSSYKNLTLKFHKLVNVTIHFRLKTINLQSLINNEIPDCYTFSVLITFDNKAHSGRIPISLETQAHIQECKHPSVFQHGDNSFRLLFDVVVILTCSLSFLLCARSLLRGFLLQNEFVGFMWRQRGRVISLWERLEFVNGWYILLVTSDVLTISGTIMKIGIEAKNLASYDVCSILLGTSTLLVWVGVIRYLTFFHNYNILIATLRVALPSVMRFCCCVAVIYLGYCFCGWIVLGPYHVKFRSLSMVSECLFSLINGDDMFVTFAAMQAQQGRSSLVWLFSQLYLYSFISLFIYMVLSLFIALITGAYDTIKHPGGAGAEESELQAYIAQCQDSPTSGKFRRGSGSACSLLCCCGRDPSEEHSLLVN
#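 Calcium fluorescence in TRPML1-DL cells induced overnight with Tet: a 110 s read after compound pin addition, then a 110 s antagonist read after challenge with 54-4 at 4 uM final (EC80).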
# TRPV1 potentiator: HTS Assay for Compounds that Act as Potentiators of the Vanilloid Receptor 1; Transient receptor potential cation channel subfamily V member 1 (Homo sapiens), Q8NER1; TRPV1-expressing cells, Fluo-8 calcium influx, capsaicin EC20 potentiation; host cell line not named in the record; control for the full effect not named in the record; potentiation, % at 8.33 µM; 0.02% of 320,000 active; active means potentiation above 80%; inconclusive means 30% to 80%; inactive means below 30%; further: 0% is about no effect
#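 TRPV1-expressing cells were cultured overnight at 35.5C and loaded with Fluo-8 calcium dye for 40 to 90 min at room temperature. After a 10 s baseline, compound was added and calcium influx was read kinetically for 3 min (ex 480/em 520 nm).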
# PINK1 modulator: A Quantitative High throughput Screen to Identify Chemical Modulators of PINK1 Expression. PINK1 immunofluorescence, high-content cytometry, 24 h. Potency, µM (doses to about 76.6 µM), for inactives: at the top dose activation (PINK1 increase), usual class: activators. 0.2% of 410,000 active. AID 624263, 2012; active = well fitted activation curve with a large enough effect; inconclusive = small, poorly fitted or top-dose-only effect; inactive = flat fitted curve, though single readings scatter; cell line not stated here;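 further: potency means the concentration at half of the fitted maximal effect; % of control where 0% means no effect; nearly all actives have a fitted effect of over 65% in size; a mitochondrial uncoupler was the plate control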
#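 Stable cell line, 250 cells/well, 12 h attachment; compounds pinned at 5 concentrations, 24 h; CCCP control. Fixed with nuclear dye, primary antibodies 12 h at 10 degrees C, secondary plus cell stain; laser-scanning cytometer read.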
# ClpP mod: qHTS Assay for Activators of ClpP. Potency, µM (titrated, usually from 57.5 µM), for the others: at the highest dose activity change, negative = active. AID 651965, 2013. 1.9% of 340,000 active. ATP-dependent Clp protease proteolytic subunit (Bacillus subtilis (strain 168)), P80244. purified B. subtilis ClpP, FRET peptide cleavage, 20 min; active = well fitted falling curve with a large enough effect; inconclusive = small, poorly fitted or top-dose-only effect; inactive = no such curve, though single readings can be large or run the other way; further: potency means the concentration at half of the fitted maximal effect; the source files actives as falling curves though it sought activators and does not explain the sign; nearly all actives have a fitted effect of over 65% in size; many hits overshoot -100%
# Target sequence (P80244 whole entry, looked up): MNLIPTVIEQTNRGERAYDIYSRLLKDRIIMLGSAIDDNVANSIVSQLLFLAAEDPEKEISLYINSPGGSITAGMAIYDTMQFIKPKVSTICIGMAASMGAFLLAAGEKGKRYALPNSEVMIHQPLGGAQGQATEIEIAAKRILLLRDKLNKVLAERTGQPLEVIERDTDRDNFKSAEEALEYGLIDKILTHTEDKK
#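 FRET quenching reversal measured ClpP activation: 10 microg/mL B. subtilis ClpP at pH 8 with the FRET-FV decapeptide, read at 430 nm after 320 nm excitation. The 20-min minus 0-min signal was scaled between DMSO/no-enzyme wells and ADEP (5.8 microM final).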
# TRPML1 agonist: qHTS for Agonists of the Human Mucolipin Transient Receptor Potential 1 (TRPML1). 0.12% of 410,000 active. Mucolipin-1 (Homo sapiens), Q9GZU1. AID 624414, 2012. TRPML1-expressing cells, Ca2+ dye fluorescence, FDSS; host cell line not named in the record; reference of the full effect not given here. activation, % (no concentration beside the values); in the data active = activation above about 50%; inconclusive = about 30% to 50%; inactive = below about 30%; further: 0% is about no effect; the text of the record puts the active cut at 80%
#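 Kinetic FDSS Ca2+ read in Tet-induced TRPML1-DL cells (ABD Ca8 dye plus quencher, 45-90 min RT loading): baseline, then compound, then 110 s agonist window; EC80 agonist 54-4 at 4uM final added afterwards for a 110 s antagonist window.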
# An asterisk follows results filed as active; ? = inconclusive; / = no result given; & = joins results of further samples; [ ] = remark or other dose.
structure | Sfp inh | Menin-MLL FL inh | TRPML1 inh | TRPV1 potentiator | PINK1 modulator | ClpP mod | TRPML1 agonist
CCOc1ccc(C2C=C(c3ccc(C)cc3)Nc3ncnn32)cc1 (configuration not stated) | -30% | ? | / | -13 | / | / | /
CC1(C)ON=C(c2ccc(C(F)(F)F)cc2)NC1=O | / | / | / | / | 3.7% | 1.0% | -0.7
Cc1nc2ccccc2c(=O)n1/N=C/c1ccccc1OC(F)F | 2% | -1.1 | -10 | -12 | 2.8% | 200% | -0.9
COc1ccccc1NC(=O)C1=C(C)Nc2nc(-c3cccs3)nn2C1c1cccc(O)c1 (configuration not stated) | 7% | 0.5 | -1 | 13 | 4.2% | -1.6% | 0.3
CCC(NC(=O)C(C)NC)C(=O)N1CCCC1C(=O)NC1CCCc2ccccc21 (configuration not stated) | / | / | -8 | 4 | 2.9% | 0.5% | 0.6
COc1ccc(CNC(=O)Cn2c(=O)oc3cc(S(=O)(=O)N4CCCCCC4)ccc32)cc1 | / | / | -7 | / | -0.5% | -0.1% | 2.0
CNCCOc1ccccc1C(C)(C)C | ? | 5.8 | -14 | -13 | -1.7%[38.3 µM] | -1.9% | -0.3
O=C(NC1CCCCC1)c1ccc2c(c1)OCO2 | 18% | 2.7 | -13 | -11 | -1.0% | / | 2.1
CCN1C(=O)[C@H]2[C@@H](c3ccc(Cl)cc3)N3C(=O)CN(CC4CC4)C(=O)[C@@]3(C)[C@H]2C1=O | 11% | -0.8 | 8 | ? | 1.9% | 1.3% | -0.1
CCc1ccc(NC(=O)CSCc2ccc(C(=O)O)cc2)cc1 | 6% | 4.1 | 1 | -1 | -1.3% | -5.7% | 1.4
Cc1cc(OCC(=O)NCCc2nc3ccccc3[nH]2)cc(C)c1Cl | / | / | 15 | / | 0.3% | 1.6% | 1.4
Cc1nonc1CN(C)C(=O)CC1C(=O)NCCN1Cc1ccccc1C(F)(F)F (configuration not stated) | 16% | -7.4 | 11 | -5 | 0.9% | / | -0.4
CN(CCc1ccccn1)C(=O)CCC1CCCN(Cc2ccccc2OC(F)F)C1 (configuration not stated) | 24% | 3.8 | -4 | 0 | 0.9% | / | -0.8
O=C(NCC1CCCO1)C1CC(=O)N(c2ccccc2)C1 (configuration not stated) | 8% | -1.0 | 15 | 24 | 0.2% | / | 2.1
CCc1ccccc1NC(=O)CSc1nncn2c1cc1oc(C)cc12 | / | / | -12 | / | -0.1% | -5.2% | 1.7
CCN1CCSc2ccc(C(=O)NCc3ccc(OC(C)C)cc3)cc21 | 4% | 0.5 | 1&13 | -1 | -0.4%&1.3% | 4.3%&5.0% | 0.1&1.0
Cc1ccc(OCC(=O)NNC(=O)[C@@H]2CCCC[C@@H]2C(=O)O)c(Br)c1 | 26% | / | -3 | 14 | -1.2% | 2.2% | -0.7
Cc1ccc(S(=O)(=O)N2CCC(C(=O)Nc3cc(C(F)(F)F)ccc3N3CCOCC3)CC2)cc1C | / | / | 10 | 5 | 2.0% | / | 2.0
O=C1CCC([N+](=O)[O-])C(c2ccccc2C(F)(F)F)N1 (configuration not stated) | 9% | 7.0 | -8 | -2 | -2.1% | -0.5% | 2.6
O=C(OCCOc1ccccc1F)c1cccc(S(=O)(=O)N2CCOCC2)c1 | / | / | -5 | -5 | 0.1% | 0.6% | 0.0
CCCCOc1ccc(-c2csc(N)n2)cc1[N+](=O)[O-] | 40µM* | 5.6 | -6 | -9 | 0.5% | 0.7% | 0.6
O=C(Nc1nc(-c2cccc(Br)c2)cs1)Oc1ccccc1 | 12% | -5.0 | 13 | ? | / | -2.5% | 1.3
CC(=O)Nc1ccc(NC(=O)C(C)OC(=O)CCC(=O)c2ccc(F)cc2)cc1 (configuration not stated) | -4% | 2.8 | 0 | 4 | -0.4% | -0.6% | -1.3
COc1ncccc1C(=O)N1CCCC(C(=O)Nc2cccc(-c3ccc(F)cc3)c2)C1 (configuration not stated) | / | / | 3 | / | 1.5% | -6.6% | 0.1
CCCCn1c(N)c(N(CC)C(=O)c2ccc(C#N)cc2)c(=O)[nH]c1=O | -3% | 3.9 | 16 | 4 | 0.5% | / | 1.2
O=C(Cc1cccc(NC(=O)C2CCCN(C(=O)CCc3ccccc3)C2)c1)Nc1ccc(C(=O)N2CCCCC2)cc1 (configuration not stated) | / | / | 9 | / | 1.7% | 0.9% | -1.0
CC(=O)c1c(C)[nH]c(C(=O)Nc2cc(S(=O)(=O)N3CCCCC3)ccc2C)c1C | / | / | 30 | -8 | 7.5% | -1.1% | 1.5
CCc1cccc(NC(=O)c2ccc(Br)o2)c1 | 3% | 4.2 | -1 | -5 | -1.2% | 0.4% | 0.9
COCCCN1C(=O)C(=O)/C(=C(/O)c2ccc3c(c2)CC(C)O3)C1c1cccnc1 (configuration not stated) | -5% | 2.0 | -2 | 5 | 1.0% | -3.8% | -0.2
O=C(NC(=S)Nc1ccccc1N1CCOCC1)c1ccc([N+](=O)[O-])cc1 | 8% | 2.3 | 20 | -12 | 4.7% | -0.3% | 1.7
COCCNc1nc2c(c(=O)n(Cc3ccc(OC)cc3)c(=O)n2C)n1C | -15% | -0.8 | -6 | 10 | 0.3% | 0.3% | 0.0
CCOC(=O)c1ccc(NC2(c3ccccc3)C(=O)c3ccccc3C2=O)cc1 | / | / | -30 | / | -0.2% | 4.8% | 2.8
Cc1c(Br)cccc1NC(=O)C1(C)CCN1CCc1ccccc1 (configuration not stated) | / | / | / | / | ? | 0.6% | 0.8
O=C(CC1CCCC1)NCCS(=O)(=O)N1CCN(c2ccccc2F)CC1 | / | / | 21 | -7 | 0.2% | 0.6% | -0.1
COc1ccc(CNc2ncnc3c2c(-c2ccccc2)cn3-c2ccccc2)cc1 | / | / | -20 | / | 2.0% | 25µM* | 19
COc1ccccc1OCCNC(=O)c1ccccc1C | 15% | -1.7 | -15 | -5 | 1.3%[38.3 µM] | 0.0% | 1.0
O=C(CCc1nc(-c2ccccc2Cl)no1)NC1CCCC1 | 14% | 0.3 | -6 | -4 | 0.0% | 0.7% | -0.6
COCCNCC#CCOc1ccc(OC)cc1 | -5% | 1.7 | 17 | 12 | 2.4%[38.3 µM] | -1.7% | 0.3
CCOc1ccc(CC(=O)NCCc2csc3nc(-c4ccccc4F)nn23)cc1 | / | / | 2 | / | 1.3% | -1.8% | 4.0
CC(C)C(C)(C#N)NC(=O)CSc1nnc(-c2ccncc2)n1Cc1ccccc1 (configuration not stated) | 11% | 0.9 | 30 | -10 | -1.4% | -1.7% | -0.5
Cc1ccccc1NC(=S)C1=C(O)c2sccc2N(C)S1(=O)=O | 56µM* | 2.5 | 11 | 6 | -0.5% | -0.9% | -0.4
CCCNC(=O)c1c(NC(=O)c2ccccc2)sc2c1CCC(C(C)(C)C)C2 (configuration not stated) | / | / | 7 | / | 3.2% | -0.9% | -0.2
CC(=O)N1CCc2cc(Br)cc(S(=O)(=O)N3CCC(C(=O)O)CC3)c21 | 20% | 0.6 | 61 | 7 | 0.5% | / | 0.1
CC1CCCCN1C(=S)NCCc1ccccc1 (configuration not stated) | -11% | 6.9 | 11 | -1 | 0.2% | -0.4% | -0.6
C/C(=N/NC(=O)CCc1ccccc1)c1ccco1 | 7% | -1.2 | -15 | -2 | -0.9% | -1.5% | 1.6
CCCN(CCC)Cc1c(C(=O)N/N=C/c2ccco2)nnn1-c1nonc1N | 12% | -1.1 | 26 | -13 | -0.1% | / | 0.5
CC(=O)N(C)c1ccc(N2CCOCC2)c2c1C(=O)c1ccccc1C2=O | / | / | -19 | / | -0.9% | 1.4% | 0.4
O=C(c1ccccc1)N1CCN(Cc2ccccc2C(F)(F)F)CC1 | ? | 1.1 | 13 | -9 | 2.7% | -1.5% | -1.8
COc1ccc(OC)c(NC(=O)CCCN2C(=O)C3C4C=CC(C4)C3C2=O)c1 (configuration not stated) | 4% | 3.2 | -20 | -22 | 0.9% | -0.6% | -0.2
CS(=O)(=O)Nc1cccc(C2=NN(C(=O)CCC(=O)O)C(c3cccs3)C2)c1 (configuration not stated) | 10% | -1.8 | -3 | 9 | -1.2% | -7.5% | 0.9
O=C(O)CC12CC3CC(C1)CC(n1ncc(NCC4CCCO4)c(Cl)c1=O)(C3)C2 (configuration not stated) | 22% | 3.0 | -24 | -14 | -1.2% | -0.4% | 0.5
CC(C)[C@H](NC(=O)Nc1ccc(Oc2ccccc2)cc1)C(=O)O | 3% | 0.3 | 20 | 4 | -0.2% | -0.8% | 1.4
O=C(CN1CCN(c2ccccc2)CC1)Nc1ccc(OCc2ccccc2)cc1 | 10% | 0.7 | 8 | -1 | -2.3% | 0.4% | 1.3
O=C(Nc1nnc(CCc2ccccc2)s1)c1ccccc1F | 10% | 0.5 | -18 | 26 | -0.6% | 1.7% | 0.1
COCc1cc(=O)n2[nH]cc(-c3ccccc3)c2n1 | -1% | 0.3 | -5 | -18 | -0.1% | 0.2% | 0.4
O=C(NCc1cccc2[nH]ccc12)C1CCC(=O)N(CCc2ccc(Cl)cc2)C1 (configuration not stated) | 17% | / | -3 | 22 | -2.9% | -3.9% | 0.6
O=C(CN(Cc1ccc(F)cc1)C(=O)CCC(=O)Nc1nccs1)NCC1CCCO1 (configuration not stated) | 20% | / | 4 | 1 | 2.7% | / | 0.0
Cc1ccc2c(=O)cc(C(=O)Nc3sc4c(c3C(N)=O)CCCC4)oc2c1 | / | / | 2 | / | 12% | 0.8% | -0.6
CCCCN(c1ccccc1)c1ncnc(N)c1[N+](=O)[O-] | -7% | -8.2 | 7 | 7 | 8.6%[38.3 µM] | -0.9% | 2.1
COc1ccc(Nc2ccc3cc(S(=O)(=O)N4CCCC4)ccc3n2)cc1Cl | / | / | 16 | / | ? | 4.8% | 1.6
Cc1ccc2nc(=O)c(NNc3ccccc3)cnc2c1 | 3% | 1.5 | -7&12 | 6&-7 | -0.3%&-1.1% | 0.9% | -0.9&0.6
CN(C)CCN(C(=O)C1CCN(S(=O)(=O)c2cccs2)CC1)c1nc2ccc(F)cc2s1 | / | / | 14 | 1 | -0.6% | 1.4% | -0.9
